# Screening results: PubChem BioAssay, Fisher Drug Discovery Resource Center
# NPYLR7 ag: activates Aedes aegypti NPYLR7 receptor. HEK293T NPYLR7/Galpha15, GCaMP6s calcium fluorescence. activation, % at 10 µM. 270,000 compounds, 0.15% hits; in the data active = activation above about 40%;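 note: 0% = vehicle and 100% = reference agonist at the receptor; some compounds past the cut are filed as inactive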
# NPYLR7 ag max-min: further read-out of NPYLR7 ag, marked with its call; activation, %; measured here: Max-Min RFU normalised activation; some inactives read as strong as hits;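 span of the calcium signal over five minutes; 0% = vehicle and 100% = native peptide agonist; compound fluorescence can raise it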
# * hit, by the source's call; & = joins results of further samples. Only part of the results is shown. The share of hits here may be higher or lower than overall.
SMILES,NPYLR7 ag,NPYLR7 ag max-min
CN(Cc1ccccc1)C1(CNC(=O)C2CC(=O)c3ccccc32)Cc2ccccc2C1 (centres undefined),14,16
COc1ccc(N2C(=O)C3C4C=CC(C4)C3(C(F)(F)F)C2=O)cc1 (centres undefined),2,1
COc1ccc(C(=O)N2CCN(C(=O)CCC3(Cc4ccc(Cl)cc4)CCC(=O)N3)CC2)cc1 (centres undefined),4,-3
O=C(NCCc1cscn1)c1cc(COc2cccc(F)c2)[nH]n1,3,2
CCN(CC)c1ccc(-n2ccnc2)cc1,3,2
Cc1noc(-c2ccc(N(C)Cc3cccnc3)nc2)n1,9,7
CCN(CC)C(=O)Cn1cc(C(=O)O)nn1,-2,-1
CC(NC(=O)Nc1ccc(S(C)=O)cc1)c1ccc(F)c(F)c1 (centres undefined),8,5
CCC1(CC)NC(=O)N(Cc2ccc(C#N)cc2)C1=O,1,1
CN(C)S(=O)(=O)c1ccc(C(=O)N2CCN=C2SCc2ccccc2)cc1,13,10
Cc1ccc(Cc2nc(N3CCCN(C(=O)c4ccc(Cl)cc4Cl)CC3)c3c(C)nn(-c4ccc(F)cc4)c3n2)cc1,9,7
O=c1c(C2=NCCCCC2)c(NC2=NCCCCCC2)[nH]n1-c1ccccc1,7,6
CC(Cc1cccs1)C(=O)NCc1ccc(S(N)(=O)=O)cc1 (centres undefined),9,6
CCCc1nc(N2CCN(C(=O)/C=C/c3ccccc3)CC2)c2c3c(sc2n1)CN(CC)CC3,-1,0
Cc1noc(C)c1S(=O)(=O)Nc1ccc(OC(F)F)cc1,-2,-2
CCCCCN1CCN(c2nc3c(c(=O)[nH]c(=O)n3C)n2Cc2ccc(Br)cc2)CC1,5,3
O=C(NCc1ccccc1Cn1cccn1)c1ccc(-n2cnnc2)cc1,3,0
Cn1cc(CN2CCCC2C(=O)Nc2ccc(-c3nc4ccccc4[nH]3)cc2)cn1 (centres undefined),8,6
Cc1cc(I)ccc1-n1[nH]c(C(F)(F)F)cc1=O,0,-3
CCOc1ccc(-c2ccc(=O)n(CC(=O)Nc3cc(C)ccc3C)n2)cc1,10,1
CNCC(O)c1ccc(OC(=O)C(C)(C)C)c(OC(=O)C(C)(C)C)c1 (centres undefined),-4,-10
COc1ccc(-n2c(CCC(=O)NCc3cc(F)ccc3F)ccc2-c2ccc(Cl)cc2)cc1,0,-3
CC(=O)C(Sc1nc(C)nc2sc(C)c(C)c12)C(=O)N(C)C (centres undefined),-2,-13
C=CCNCC(=O)N(CCc1ccc(OC)c(OC)c1)Cc1ccco1,6,6
Cc1ccc(Cc2nc(CSc3cccs3)cs2)cc1,5,3
COc1ccc(OC)c(Cc2nnc(CCC(=O)NC3CCCCCCC3)o2)c1,2,-3
CCN(CC)CCn1c2c(c(SCC(=O)Nc3ccccc3OC)nc1=O)CCC2,-3,-6
COc1ccccc1N1CCN(c2ccc(NC(=O)Nc3cccc(F)c3)cc2C(=O)NC(C)c2ccccc2)CC1 (centres undefined),1,9
O=[N+]([O-])c1cc(S(=O)(=O)C(F)(F)F)ccc1Nc1ccc(Cl)cn1,-4,1
Cc1ccc(S(=O)(=O)Nc2cc(-c3ccco3)nn2C2CCS(=O)(=O)C2)cc1C (centres undefined),0,-1
Cc1nc(-c2cccc(F)c2)sc1CCNS(=O)(=O)c1cccs1,7,7
Cc1ccc(OCCNC(=O)CCc2ccccc2F)cc1,4,10
Cc1cccc2c(C(=O)N(Cc3nccn3C)C(C)C)cc(-c3cnn(C)c3)nc12,5,-5
Cc1cc2cc(C(=O)NC(C)c3cnn(-c4ccccn4)c3C)ccc2o1 (centres undefined),7,4
COCCN[C@H]1[C@H](O)C[C@@H]2C[C@H](c3ccccc3)OC[C@]21O,3,7
Cc1onc(-c2c(Cl)cccc2Cl)c1C(=O)N1CCN(c2nc3nccc(-c4ccc(C5CCCCC5)cc4)n3n2)CC1,6,3

# Complete entries as entered above. Screens in order: NPYLR7 ag	NPYLR7 ag max-min
# Cc1ccc(S(=O)(=O)Nc2cc(-c3ccco3)nn2C2CCS(=O)(=O)C2)cc1C (centres undefined) reads 0	-1
# Cc1cccc2c(C(=O)N(Cc3nccn3C)C(C)C)cc(-c3cnn(C)c3)nc12 reads 5	-5
# COCCN[C@H]1[C@H](O)C[C@@H]2C[C@H](c3ccccc3)OC[C@]21O reads 3	7

# Continued.
SMILES,NPYLR7 ag,NPYLR7 ag max-min
O=C(NCC(F)(F)F)c1ccc(NC(=O)c2ccc[nH]c2=O)cc1,2,3
CSc1ncc(CNCC(C)(C)C)c(N2CCN(c3ccccc3F)CC2)n1,6,7
CSc1ncc(CNCCc2ccccc2Cl)c(N2CCN(c3ccc(F)cc3)CC2)n1,24,21
Cc1ccc(C)c(C2CC(c3ccccc3Cl)=NN2C(=O)CN2CCCC2)c1 (centres undefined),-2,6
COc1ccc(-c2cc(N)n(-c3ccc(C(=O)Nc4cccc(-c5ccnc(C)n5)c4)cc3)n2)cc1,-7,-11
CCN(CC)c1onc(-c2ccccc2)c1CN(CCCOC)C(=O)c1cccc(C)c1,3,7
COC1CCN(C(=O)c2cccs2)CC(=O)N(C)c2ccccc21 (centres undefined),2,6
Cc1cc(C(=O)N(CC2CCN(C3Cc4ccccc4C3)CC2)CC2CCCO2)no1 (centres undefined),12,-3
CCC(C(=O)N(Cc1cc(NC(=O)C2CCCC2)ccc1N(C)C)C1CC1)c1ccccc1 (centres undefined),-12,-1
O=C(c1nc2sccn2c1CNCCc1ccncc1)N1CCCCCCC1,5,11
Cc1cccc(N=C2NN=C(c3ccco3)CS2)c1,8,6
CCCN(CCOC)C(=O)CCc1ccc(-c2ccc(C)cc2C)n1-c1ccc(CC#N)cc1,-1,-4
CCCCCOc1ccc(C(=O)NCCCN(C)c2ccccc2)cc1OCCCCC,-5,-11
CCN(C)Cc1cccc(CNC(=O)CNc2ccc(Br)cc2)c1,3,1
CN(C(=O)C1Cc2c(-c3ccc(Cl)cc3)ccnc2O1)c1ccccc1 (centres undefined),14,10
CC(C)(C)NC(=O)N1CCN(CCN2C(=O)CSC2c2ccc(Cl)c(Cl)c2)CC1 (centres undefined),14,9
O=C(C[n+]1cc(=O)o[nH]1)N1CCCC(N2CCN(c3cccc(C(F)(F)F)c3)CC2)C1 (centres undefined),2,1
N#Cc1ccc(NCc2cccnc2N2CCOCC2)nc1,7,4
CC(C)c1cc(NC2CC(=O)N(CC(C)(C)C)C2)nc(C(F)(F)F)n1 (centres undefined),10,7
COCCNC(=O)Cn1nc(C2CC2)c2cnn(-c3ccc(F)cc3)c2c1=O,5,0
CN(Cc1ncn[nH]1)C(=O)c1csc(-c2ccccc2)n1,2,0
N#Cc1cccc(NC(=O)c2ccc(Cl)cc2NC(=O)c2cccs2)c1,1,0
Cc1cc(CN(C)C(=O)CC(c2cccc(O)c2)c2ccccc2Cl)n[nH]1 (centres undefined),7,5
Cc1cc(CN(C)C(=O)[C@@]23CNC[C@@H]2CN(S(C)(=O)=O)C3)n[nH]1,1,0
C=CCn1c(N)c(-c2nc3ccccc3n2C)sc1=S,12,11
COC(=O)c1cc(-c2ccccc2F)on1,-6,-8
CCOC(=O)c1cnc(C)nc1NCc1c(C)nn(C)c1C,3,11
O=C(Nc1ccc(F)c(F)c1)N1CCc2nc(-c3ccccc3)nc(N3CCOCC3)c2C1,-1,17
Cc1ccn2c(NC(C)(C)C)c(-c3ccccc3Cl)nc2c1,0,1
N#Cc1c(Cl)nsc1NCCc1c[nH]c2ccccc12,9,4
O=C(O)c1cncc(-c2cccc3c2CCNC3)c1,14,7
CCOC(=O)c1ccc2c(c1)nc(SCc1cccc3cccnc13)n2Cc1ccco1,4,3
CC(C)c1ccc(-c2noc(CCC(=O)N3CCCN(S(C)(=O)=O)CC3)n2)cc1,-6,-11
CCCCc1ccc(C(=O)N(CCOC)CC(=O)N(Cc2cccn2Cc2ccccc2)C2CCCCC2)cc1,8,9
O=c1n(CC2CCCO2)nc(CC2CCNCC2)n1-c1ccccc1 (centres undefined),-1,-8
CCOC(=O)CSc1nc2c(c(=O)n1-c1ccc(C)cc1)SCC2,-2,-2
Cc1cc(NCc2ccco2)c2nncn2n1,0,-2
CC(=O)c1ccc(N=Nc2c(-c3ccc([N+](=O)[O-])cc3)[nH]n(-c3nc(-c4ccccc4)cs3)c2=O)cc1,-3,-10
CCn1nc(C)cc1C(=O)N1CCCC(CCC(=O)Nc2ccc(C(F)(F)F)cc2)C1 (centres undefined),13,3
CC(=O)N1CCC(N(C)Cc2cccc(-n3nc(C)cc3C)c2)CC1,10,1
Cc1c(C)n2c3c(=O)n(Cc4c(F)cccc4Cl)c(=O)n(C)c3nc2n1Cc1ccco1,-5,-4
CN(C)c1ccc(SC#N)cc1,4,-1
COc1ccc2cc(C(C)C(=O)N3CCC(C(N)=O)CC3)ccc2c1 (centres undefined),8,8
Oc1ccccc1/C=N\Nc1nc(N2CCCC2)nc(N2CCOCC2)n1,5,0
C#CCn1c(=NC(=O)c2ccn(C)n2)sc2ccccc21,5,10
O=C(Nc1ccc2c(c1)OCO2)N1C[C@@H](CO)[C@@H]2Oc3c(F)cccc3[C@@H]21,5,5
CC(=O)OC(C(=O)N(Cc1nc2cc(C)ccc2o1)C(C)C)c1ccccc1 (centres undefined),0,-4
Cc1ccc(C)c(C2c3cccn3CCCN2Cc2cc(Cl)ccc2O)c1 (centres undefined),22,31
Clc1cnc(N2CCN(Cc3cccc4[nH]ccc34)CC2)nc1,-3,-2
O=C(CSCc1ccc(F)cc1Br)NCc1ccc(F)cc1,0,2
CCCCN(CC(=O)N(CCc1ccccc1)Cc1ccc(C)o1)Cc1ccc(Cl)cc1Cl,0,11
O=C(CC(c1ccc(Cl)c(C(F)(F)F)c1)c1c[nH]c2ccccc12)NCc1cccnc1 (centres undefined),1,7
COC(=O)c1csc(CN(C(=O)c2ccc(-c3ccccc3)cc2)C2CCCCC2)n1,-8,-19
CCc1ccc(S(=O)(=O)N2CCN(c3nc(C)cc(Nc4ccc(C)cc4)n3)CC2)cc1,10,3
CC(=O)c1ccc(NC(=O)N2CCC(n3cc(-c4ccsc4)nn3)CC2)cc1,-3,-4
Cn1c(SCC(=O)N/N=C\c2ccc(O)c(O)c2)nc2ccccc21,-9,-18
Nc1ccc(S(=O)(=O)Nc2cnc3ccccc3n2)cc1,-4&-13&-6,-15&12&-9
CCC(CC)(NS(=O)(=O)c1c(C)nn(C)c1Cl)c1ccc(Cl)cc1,-5,-6
Cc1nonc1CNC1CCN(c2ccc(C(=O)NC(C)c3ccccc3)cc2)CC1 (centres undefined),5,0
Cc1cc(C)c(S(=O)(=O)N2CCC(C(=O)N(C)Cc3ccc(C)o3)CC2)c(C)c1,3,7
# Additional compounds.
SMILES,NPYLR7 ag,NPYLR7 ag max-min
O=C1CSC(c2cccs2)N1c1ccc(Cl)cc1 (centres undefined),-8,-16
Cc1ccc(-c2nc3n(c2CNC(=O)C(C)C)CCS3)cc1,20,15
CN(C)CCN(Cc1cccs1)c1ccccn1,-10&-4&1,-13&-8&-10
CCC(C)n1c(C)cn2c3c(=O)n(CC(=O)OCc4ccccc4)c(=O)n(C)c3nc12 (centres undefined),0,13
Cn1cc(CN(CCO)Cc2cccs2)c(-c2cccc(Cl)c2)n1,-4&-4,-4&-8
CC(C#N)Sc1ccc(S(=O)(=O)N2CCCC2)cn1 (centres undefined),18,18
COCCOC1CCCN(C(=O)c2ccc(Cl)cc2)C1 (centres undefined),-2,0
CCC(C)(C)c1ccc(S(=O)(=O)N2CCN(c3cc(S(=O)(=O)N4CCOCC4)ccc3OC)CC2)cc1,18,6
Cn1c(/C(C#N)=C/c2ccc(N3CCOCC3)o2)nc2ccccc21,126*,159*
NC(=O)[C@H](Cc1ccccc1)NC(=O)c1cccc(N)c1Nc1ccccc1,-1,-2
COc1cccc(-n2c(-c3nccc4ccccc34)n[nH]c2=S)c1,-6,-14
CCOC(=O)N1CCN(S(=O)(=O)c2c(C)nc3scc(C)n3c2=O)CC1,5,4
COc1cccc(C(=O)N2CCCN(c3nc(Cc4ccccc4)nc4onc(-c5ccccc5)c34)CC2)c1,19,8
O=S1(=O)C[C@@H]2NCCN(S(=O)(=O)NCc3ccccc3)[C@@H]2C1,0,7

# Structures listed so far that contain two or more sulfur atoms, in the order listed:
SMILES,NPYLR7 ag,NPYLR7 ag max-min
CN(C)S(=O)(=O)c1ccc(C(=O)N2CCN=C2SCc2ccccc2)cc1,13,10
CC(Cc1cccs1)C(=O)NCc1ccc(S(N)(=O)=O)cc1 (centres undefined),9,6
CC(=O)C(Sc1nc(C)nc2sc(C)c(C)c12)C(=O)N(C)C (centres undefined),-2,-13
Cc1ccc(Cc2nc(CSc3cccs3)cs2)cc1,5,3
Cc1ccc(S(=O)(=O)Nc2cc(-c3ccco3)nn2C2CCS(=O)(=O)C2)cc1C (centres undefined),0,-1
Cc1nc(-c2cccc(F)c2)sc1CCNS(=O)(=O)c1cccs1,7,7
C=CCn1c(N)c(-c2nc3ccccc3n2C)sc1=S,12,11
CCOC(=O)CSc1nc2c(c(=O)n1-c1ccc(C)cc1)SCC2,-2,-2
O=C1CSC(c2cccs2)N1c1ccc(Cl)cc1 (centres undefined),-8,-16
CC(C#N)Sc1ccc(S(=O)(=O)N2CCCC2)cn1 (centres undefined),18,18
CCC(C)(C)c1ccc(S(=O)(=O)N2CCN(c3cc(S(=O)(=O)N4CCOCC4)ccc3OC)CC2)cc1,18,6
CCOC(=O)N1CCN(S(=O)(=O)c2c(C)nc3scc(C)n3c2=O)CC1,5,4
O=S1(=O)C[C@@H]2NCCN(S(=O)(=O)NCc3ccccc3)[C@@H]2C1,0,7
